# Screening results from PubChem BioAssay.
# NALP3 yeast inh – inhibitors of NALP3 inflammasome in yeast. inhibition, % at 10 µM. actives 0.39% (n = 330,000). Yeast reconstituted NLRP3/ASC/caspase-1, beta-gal luminescence, 24 h;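 active = inhibition of 50% or more; inactive = inhibition below 50%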;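 note: plate controls were induced DMSO wells for no effect and uninduced yeast grown without galactose for full effect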
# mIAP inh – blocks mouse intestinal alkaline phosphatase | purified mouse IAP, CDP-Star luminescence, 30 min | inhibition, % at 10 µM | actives 0.2% (n = 330,000) | AID 2806;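 active = inhibition of at least 40% at 10 µM in the primary screen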;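 note: plate controls were DMSO with enzyme for no effect and no enzyme wells for full effect; values of inactives mirror those of a sister screen read the other way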
# mIAP activ – increases mouse intestinal alkaline phosphatase activity. actives 0.24% (n = 330,000). muIAP, CDP-Star luminescence, 30 min; active compounds read high; 1 = vehicle-only enzyme signal, 0 = enzyme-free wells. activation factor at 10 µM;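 active = activation factor of at least 2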; note: the source names both 10 and 20 µM as test concentration; values of inactives mirror those of a sister screen read the other way
#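 Assay system: mouse IAP enzyme / Compound: DMSO-dissolved test compounds / Timing: 30 min, room temperature / Measured by: luminescence from enzymatic CDP-Star hydrolysis / Control set: DMSO-only wells, enzyme-free buffer wells as negative control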
# hIAP block – blocks human intestinal alkaline phosphatase; purified IAP, CDP-Star luminescence, 30 min; actives 0.12% (n = 330,000); AID 2544; inhibition, % at 10 µM; P09923;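 active = inhibition reaching a set limit with compound at 10 µM in the primary screen, cut at about 35% in these data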;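 note: plate controls were DMSO wells with enzyme for no effect and no-enzyme buffer wells for full effect; values of inactives mirror those of a sister screen read the other way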
# Target sequence (P09923 whole entry, looked up): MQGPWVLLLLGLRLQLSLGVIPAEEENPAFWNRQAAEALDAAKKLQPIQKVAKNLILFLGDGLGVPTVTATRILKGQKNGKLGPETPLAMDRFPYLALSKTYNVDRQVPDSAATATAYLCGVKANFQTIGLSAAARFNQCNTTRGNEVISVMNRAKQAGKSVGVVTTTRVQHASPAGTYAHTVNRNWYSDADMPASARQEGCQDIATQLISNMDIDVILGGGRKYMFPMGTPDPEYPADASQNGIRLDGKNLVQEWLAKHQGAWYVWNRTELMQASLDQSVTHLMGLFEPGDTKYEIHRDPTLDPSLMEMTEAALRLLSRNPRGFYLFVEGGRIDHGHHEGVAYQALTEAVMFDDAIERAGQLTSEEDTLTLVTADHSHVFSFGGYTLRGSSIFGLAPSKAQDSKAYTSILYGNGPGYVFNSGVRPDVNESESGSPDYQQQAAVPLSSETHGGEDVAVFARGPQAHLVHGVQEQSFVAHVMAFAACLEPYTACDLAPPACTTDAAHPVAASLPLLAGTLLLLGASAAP
# hIAP act – increases human intestinal alkaline phosphatase activity; activation factor at 10 µM; actives 0.16% (n = 330,000); P09923; AID 2524; purified human IAP, CDP-Star luminescence, 30 min; active compounds read high; 1 = vehicle-only enzyme, 0 = enzyme-free background;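 active = activation factor of the enzyme at least 2-fold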; note: the source names both 10 and 20 µM as test concentration; values of inactives mirror those of a sister screen read the other way
# The depositor's hits bear a star.
# Screens by letter – A = NALP3 yeast inh; B = mIAP inh; C = mIAP activ; D = hIAP block; E = hIAP act
Molecule: COc1ccc2c(c1)[nH]c1c(C)nccc12
  A: 8 | B: -1 | C: 1 | D: -9 | E: 1.1

Molecule: COCCNC(=O)c1c(NC(=O)c2ccco2)n(Cc2ccccc2)c2nc3ccccc3nc12
  A: 14 | B: 5 | C: 0.95 | D: 0 | E: 1

Molecule: O=[N+]([O-])c1ccccc1Cl
  A: 7 | B: -9 | C: 1.1 | D: -5 | E: 1.1

Molecule: O=c1ccc2cc(OC3O[C@H](CO)[C@@H](O)[C@H](O)[C@H]3O)c(O)cc2o1 (stereo partly drawn)
  A: -1 | B: -2 | C: 1 | D: -13 | E: 1.1

Molecule: CCOc1ccc2[nH]c(=O)c(CN(CCO)C3(c4nnnn4C4CCCCC4)CCCCC3)cc2c1
  A: 12 | B: -1 | C: 1 | D: 3 | E: 0.97

Molecule: CCOC(=O)c1cncn1[C@H](C)c1ccccc1
  A: 9 | B: -4 | C: 1 | D: -11 | E: 1.1

Molecule: CC(C)CCn1c(N)c(C(=O)OCC2CCCO2)c2nc3ccccc3nc21 (stereo not drawn)
  A: 10 | B: -17 | C: 1.2 | D: 10 | E: 0.9

Molecule: CC(C)OC(=O)c1c(N)n(CC2CCCO2)c2nc3ccccc3nc12 (stereo not drawn)
  A: 16 | B: -12 | C: 1.1 | D: -2 | E: 1

Molecule: CCCCn1c(NC(=O)c2ccco2)c(C(=O)OCC)c2nc3ccccc3nc21
  A: 6 | B: -12 | C: 1.1 | D: -18 | E: 1.2

Molecule: CC(C)OCCCNC(=O)c1c(N)n(Cc2cccs2)c2nc3ccccc3nc12
  A: 9 | B: -16 | C: 1.2 | D: 4 | E: 0.96

Molecule: Nc1c(C(=O)OC2CCCCC2)c2nc3ccccc3nc2n1CC1CCCO1 (stereo not drawn)
  A: 11 | B: 0 | C: 1 | D: 13 | E: 0.87

Molecule: Nc1c(C(=O)NC2CCCC2)c2nc3ccccc3nc2n1CC1CCCO1 (stereo not drawn)
  A: 3 | B: -29 | C: 1.3 | D: -12 | E: 1.1

# Given with values under each structure: part of the list above
# Sequence of screens – NALP3 yeast inh, mIAP inh, mIAP activ, hIAP block, hIAP act
COc1ccc2c(c1)[nH]c1c(C)nccc12
  8, -1, 1, -9, 1.1
COCCNC(=O)c1c(NC(=O)c2ccco2)n(Cc2ccccc2)c2nc3ccccc3nc12
  14, 5, 0.95, 0, 1

# Already shown: entries from further up.
# Screens by letter – A = NALP3 yeast inh; B = mIAP inh; C = mIAP activ; D = hIAP block; E = hIAP act
Molecule: CCCCn1c(NC(=O)c2ccco2)c(C(=O)OCC)c2nc3ccccc3nc21
  A: 6 | B: -12 | C: 1.1 | D: -18 | E: 1.2

Molecule: CC(C)OCCCNC(=O)c1c(N)n(Cc2cccs2)c2nc3ccccc3nc12
  A: 9 | B: -16 | C: 1.2 | D: 4 | E: 0.96

Molecule: Nc1c(C(=O)OC2CCCCC2)c2nc3ccccc3nc2n1CC1CCCO1 (stereo not drawn)
  A: 11 | B: 0 | C: 1 | D: 13 | E: 0.87

Molecule: Nc1c(C(=O)NC2CCCC2)c2nc3ccccc3nc2n1CC1CCCO1 (stereo not drawn)
  A: 3 | B: -29 | C: 1.3 | D: -12 | E: 1.1

# The list is partial. The share of hits here may be higher or lower than overall.
